# From PubChem
# HPGD block: inhibitors of human 15-hydroxyprostaglandin dehydrogenase (HPGD); purified HPGD, NADH fluorescence kinetic, PGE2 substrate; Potency, µM, for inactives: at the highest dose activity change, negative = inhibition, actives largely listed as inhibitors; AID 894; actives 4.3% (n = 150,000); P15428; active = well fitted inhibition curve with a large enough effect (not every such curve was filed as active); inconclusive = small, poorly fitted or top-dose-only effect, or another doubt; inactive = no such curve, though single readings can be large or run the other way;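 further: top concentration of the series not given in the record; plate controls included wells without enzyme; inactives centre near -10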
# Target sequence (P15428 whole entry, looked up): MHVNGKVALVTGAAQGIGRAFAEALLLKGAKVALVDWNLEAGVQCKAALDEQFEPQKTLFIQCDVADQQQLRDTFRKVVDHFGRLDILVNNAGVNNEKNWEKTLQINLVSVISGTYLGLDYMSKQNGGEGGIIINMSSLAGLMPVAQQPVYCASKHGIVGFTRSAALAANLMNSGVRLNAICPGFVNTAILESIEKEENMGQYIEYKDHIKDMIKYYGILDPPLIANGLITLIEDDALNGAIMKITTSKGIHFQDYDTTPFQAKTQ
#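 NADH formation kinetics: reaction with 30 uM PGE2 and 1 mM NAD+ (final), 20 nM enzyme, Tris-HCl pH 8 with Tween 20, after 15 min compound preincubation at room temperature. Fluorescence change, last versus first of five reads.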
# Numbers without * were called inactive; ? = inconclusive. On the % scale 0 is the no-effect control and ±100 the full control effect; potency means the concentration at half of the fitted maximal effect. These rows are one share of the data; rates above refer to the full screens.
SMILES,HPGD block
Cn1c(SCC(=O)c2ccc3c(c2)OCO3)nnc1-c1ccccn1,-9.4%
CCSc1nc(-c2cccnc2)ccc1C#N,?
O=C(NCc1cccnc1)/C(=C/c1ccc(-c2cccc(C(F)(F)F)c2)o1)NC(=O)c1ccccc1,?
Cc1ccc(C(=O)NCCc2sc(C)nc2C)cc1,-2.5%
Nc1cc(C(F)(F)F)ccc1C(=O)O,?
COc1cc(/C=N\NC(=O)CN2CCOCC2)ccc1OCC(=O)Nc1ccc(C)c(C)c1,-9.5%
COc1ccc(/C=N/Nc2nc(-c3ccc(Cl)cc3)cc(C(F)(F)F)n2)c(OC)c1,-6.6%
CC(C)(C)c1ccc(S(=O)(=O)N2CCCCC2C(=O)NCc2ccccn2)cc1 (stereo not given),-14.1%
Cc1ccc2c(c1)NC(=O)C(CC(=O)NCCN(C)C)O2 (stereo not given),-16.7%
COC(=O)C1CSC(C(=O)OC)N1C(=O)Nc1ccc(Cl)c(Cl)c1 (stereo not given),-9.0%
COc1ccc2c(c1)[nH]c1c(Cl)ncnc12,?
Cc1ccc(Nc2nc(-c3sc(NC(=O)c4ccc([N+](=O)[O-])cc4)nc3C)cs2)cc1,-11.5%
COc1ccc(C)cc1S(=O)(=O)N(C)CC(=O)N1CCN(C)CC1,-7.7%
Cn1cccc1/C=N/N1CCN(c2ccccn2)CC1,-12.3%
O=C(CCSc1ccc(Cl)cc1)N1CCCCCC1,10µM*
S=C(c1ccc(Br)cc1)N1CCN(Cc2ccccc2)CC1,31.6µM*
FC(F)(F)c1cccc(NC(=S)NCc2ccccn2)c1,-5.7%
CCC1=C2CC[C@H]3C(=O)N(CC(=O)OC)C(=O)[C@H]3[C@H]2[C@@]2(C)C(=NCC(=O)OC)OC(=O)N2C1=O,-9.6%
CCc1ccc(NC(=O)CN(c2ccc3c(c2)OCO3)S(=O)(=O)c2c(C)noc2C)cc1,-6.1%
CCCC(=O)Nn1cnc2c(c1=O)C1(CCCCC1)Cc1ccccc1-2,-16.1%
CCn1c(C(=O)OC)cc2c1ccn2-c1ccc(F)cc1,?
Cc1cc2c(=O)n(CC(=O)NCC(=O)N3CCN(Cc4ccccc4)CC3)cnc2s1,-1.5%
Cc1ccsc1C(=O)Nc1ccc(C(=O)O)cc1,-12.2%
O=C(/C=C/c1ccco1)Nc1ccc2nn(-c3ccccc3)nc2c1,-25.0%
N#C/C(=C\c1cccc([N+](=O)[O-])c1)C(=O)NCc1cccnc1,?

# The list continues:
SMILES,HPGD block
CCOC(=O)C1CCN(C(=O)Nc2ccc(OC)c(OC)c2)CC1,-8.1%
Cc1ccc(C(c2nnnn2C(C)(C)C)N2CCc3ccccc3C2)cc1 (stereo not given),3.4%
COc1ccc(C(=O)NNC(=O)CSc2nnc(COc3ccccc3)n2C)cc1,-5.6%
COc1ccccc1/C=C/C(=O)c1ccc(NC(C)=O)cc1,-18.6%
CCc1cc2c(SCC(=O)c3cccs3)ncnc2s1,?
CCOC(=O)C1=C(C)NC(=O)C1(NC(=O)c1cccnc1)C(F)(F)F (stereo not given),-3.8%
COc1ccc(-c2cc(C(F)(F)F)nc(SCC(=O)N3CC(C)OC(C)C3)n2)cc1OC (stereo not given),?
CN(CC#CCC(c1ccccc1)c1ccccc1)C(C)(C)C,-8.3%
CCCN(Cc1ccccc1)S(=O)(=O)c1ccc(N2C(=O)CCC2=O)cc1,-8.0%
CCC(C)C(NC(=O)C(C)NC(=O)CNC(=O)CNC(=O)OCc1ccccc1)C(=O)OC (stereo not given),-10.5%
COc1ccc(OCC(=O)NNC(=O)c2nn(C)c(=O)c3ccccc23)cc1,-5.0%
Cn1c(N)c(C(=O)COC(=O)CCC(=O)c2cccs2)c(=O)n(C)c1=O,-7.2%
O=C(CN1CCC(c2nc3ccccc3[nH]2)CC1)NCc1ccc2c(c1)OCO2,-6.8%
Cc1ccc(S(=O)(=O)NCC2CCCO2)cc1[N+](=O)[O-] (stereo not given),-7.1%
COc1ccc(CCN2C(=O)C(O)=C(C(=O)c3ccco3)C2c2cccs2)cc1OC (stereo not given),-18.1%
O=C(NCc1ccco1)c1sc2cc(F)ccc2c1Cl,25.1µM*
CC(C)Cn1cc(C(=O)NCC2CCCO2)c2c3ccccc3n(C)c2c1=O (stereo not given),?
CS(=O)(=O)N1CCC[C@@]2(CCN(C(c3ccccc3)c3ccccc3)C2)C1,-3.9%
O=C(COC(=O)c1ccccc1Oc1ccccc1)NCc1ccco1,?
O=C(O)CCC(=O)Nc1nc2ccccc2s1,-3.8%
Cc1c(/C=N/NC(=O)c2ccc(O)cc2)c2ccccn2c1C(=O)c1ccc(F)cc1,-7.7%
C=C(C)C1CC=C(C)C(OC(C)=O)C1 (stereo not given),-1.6%
CCOC(=O)CNC(=S)N(Cc1cccs1)C1CCCCC1,-3.2%
COCc1nc2ccccc2n1Cc1ccccc1,-5.9%
Cc1c(C(=O)Oc2ccc(F)cc2)sc2ncn(Cc3cccc(F)c3)c(=O)c12,-11.6%

# More entries
SMILES,HPGD block
Cc1ccccc1C=Nc1ccccc1C(N)=O,?
Cc1ccc(C2CC(c3ccc(NS(C)(=O)=O)cc3)=NN2C(=O)c2ccco2)cc1 (stereo not given),-12.5%
CCOc1ccccc1Oc1c(C)oc2c(CN3CCN(CCO)CC3)c(O)ccc2c1=O,?
CC1Oc2ccccc2OC1(O)c1ccccn1 (stereo not given),-12.2%
Cc1ccccc1NC(=O)c1cccc(Cn2cc(Br)c([N+](=O)[O-])n2)c1,-10.9%
CCSc1ccc(NC(=O)c2cccnc2)cc1,-13.4%
OCCN(/C=N/c1nc(-c2ccc(Br)cc2)cs1)CCO,-9.5%
O=C1CC(SC(=Nc2ccccc2)Nc2ccccc2)C(=O)N1c1ccc(Cl)c(Cl)c1 (stereo not given),-21.3%
O=C(NCc1ccccn1)c1ccc(/C=N/O)nc1,-12.2%
CC(C)C(NC(=O)OCc1ccccc1)C(=O)NCc1ccc(C(=O)O)cc1 (stereo not given),-0.3%
CCOC(=O)COn1c(=O)c(-c2cc3ccccc3o2)[n+]([O-])c2ccccc21,-2.0%
O=C1C2CCCN2C(c2ccc(F)c(F)c2)N1c1cccc(Cl)c1 (stereo not given),-12.4%
CCN=C1S/C(=C\c2ccc(OC)c(OCC)c2)C(=O)N1CC,-5.8%
CC(C)NC(=O)N1CCCC2(CCN(C(=O)c3ccncc3)CC2)C1,-4.6%
O=[N+]([O-])c1cccc(/C=N\N2CCN(c3ccc(Cl)cc3)CC2)c1,-16.1%
COCCN(CCOC)S(=O)(=O)c1ccc(C(=O)NC2CCN(Cc3ccccc3)CC2)cc1,-12.2%
Cc1cccc(NC2=C(NC(=O)c3ccccc3)C(=O)c3ccccc3C2=O)c1,?
Fc1ccc(Sc2cc(Cl)c(-c3ccccc3)nn2)cc1,-20.6%
CCOc1ccccc1C(=O)N(Cc1ccco1)C1CCS(=O)(=O)C1 (stereo not given),0.5%
O=C(Cc1ccccc1)Nc1nc(-c2cccc([N+](=O)[O-])c2)cs1,-12.4%
CCOC(=O)CCCCC(=O)c1[nH]c(=O)[nH]c1Cn1cnc2ccccc21,-7.6%
Cc1nc(SC2CC(=O)N(c3ccccc3)C2=O)nc2c1CCCC2 (stereo not given),-10.4%
Cc1nn(CCCC(=O)N2CCc3ccccc3C2)c(=O)c2cc3sccc3n12,-18.6%
Cc1ccc(OCc2nnc(SCC(=O)c3cccc([N+](=O)[O-])c3)n2C)cc1,-9.1%
CCOc1ccc2oc(C(=O)Nc3ccc(N4CCOCC4)cc3)c(C)c2c1,-5.4%

# Compounds listed so far that contain bromine, in the order listed:
SMILES,HPGD block
S=C(c1ccc(Br)cc1)N1CCN(Cc2ccccc2)CC1,31.6µM*
Cc1ccccc1NC(=O)c1cccc(Cn2cc(Br)c([N+](=O)[O-])n2)c1,-10.9%
OCCN(/C=N/c1nc(-c2ccc(Br)cc2)cs1)CCO,-9.5%

# Following part:
SMILES,HPGD block
O=C(c1cccc2ccccc12)N1CCC(N2CCN(c3ccccc3)CC2)CC1,-4.3%
Cn1c(=O)[nH]c(=O)c2c1nc(NCCCO)n2CCCc1ccccc1,-5.7%
COc1cccc(C(=O)COC(=O)c2ccc(NC(C)=O)cc2)c1,-7.9%
O=C(NNC(=O)C1[C@H]2CCCC[C@@H]12)NC1CCCCC1 (stereo not given in full),-13.1%
O=C(Nc1ccc2c(c1)OCCO2)C1c2ccccc2C(=O)N2CCc3ccccc3C12 (stereo not given),-1.2%
CC1(C)CC(=O)C(C(c2cccc(O)c2O)C2C(=O)CC(C)(C)CC2=O)C(=O)C1,-2.2%
CC(=O)NCCOc1cccc(OCCNC(C)=O)c1,-1.5%
Cc1ccc(S(=O)(=O)c2ccccc2)cc1S(=O)(=O)N1CCOCC1,0.0%
Cc1ccc(S(=O)(=O)N2CCN(C(=O)N3CCOCC3)C2C(C)C)cc1 (stereo not given),-1.1%
COc1cc(NC(=O)C2CCN(S(=O)(=O)c3cnc[nH]3)CC2)cc(OC)c1OC,-3.2%
O=C(Nc1ccc(NC(=O)C2CCCN2C(=O)OCc2ccccc2)cc1)c1ccco1 (stereo not given),-2.0%
O=C(CSc1ccccc1)Nc1ccccc1N1CCOCC1,1.4%
O=C(c1cnccn1)N1CCC2(CC1)CN(c1cccc(-c3ccccc3)c1)C2,-16.6%
O=C(CN(c1ccc(F)cc1)S(=O)(=O)c1ccc2c(c1)OCCO2)Nc1cccnc1,?
CC(C)C1CC(=O)NC(SCC(=O)Nc2ccc(Br)cc2)=C1C#N (stereo not given),-2.2%
O=C1CCC([N+](=O)[O-])C(c2ccccc2Cl)N1 (stereo not given),-2.3%
O=C(COC(=O)Cc1cccs1)Nc1ccccc1,-17.8%
COC(=O)c1c(NC(=O)c2c(-c3ccccc3Cl)noc2C)sc2c1CCC2,?
CC(=O)N(CCC(Cc1ccccc1)c1ccc2c(c1)OCO2)Cc1ccc(Cl)cc1 (stereo not given),-19.2%
COc1ccc2nnc(-c3ccccc3)n2n1,?
CC12COC3(C(=O)NCCc4ccccc4)CC1CCC32C (stereo not given),-13.8%
Cc1ccc(NC(=S)N2CCN(C(=O)C3CCCO3)CC2)c(C)c1 (stereo not given),-0.1%
CC(=O)N/C(=N\OCc1ccc(Br)cc1)c1nonc1NC(C)=O,-6.1%
Cc1cc(NC(=O)c2ccccc2Cl)no1,-6.9%
CCCCN1CCC(CCC(=O)c2cc(Cl)c(N)cc2OC)CC1,2.3%

# 2 successive entries from above, for reference:
SMILES,HPGD block
Cc1cc(NC(=O)c2ccccc2Cl)no1,-6.9%
CCCCN1CCC(CCC(=O)c2cc(Cl)c(N)cc2OC)CC1,2.3%

# More entries follow:
SMILES,HPGD block
COc1cc(NC(=O)c2ccccc2NS(=O)(=O)c2ccc(Cl)s2)cc(OC)c1,-5.9%
Cc1cc(NC(=O)CCC(=O)N(CC2CCCO2)C(C(=O)NC2CCCC2)c2cccnc2)no1 (stereo not given),-4.8%
C=CCn1c(CNC(=O)c2cccs2)nnc1SCc1ccc(Cl)cc1Cl,-24.8%
CN(CCCn1c(=S)[nH]c2ncccc2c1=O)Cc1ccccc1,-19.0%
Cc1nc(=S)c2ccccc2[nH]1,-15.0%
CS(=O)(=O)N1CCN(C(=O)c2ccccc2)C1,-14.1%
COCCNc1nnc(SCC(=O)c2c[nH]c3ccccc23)s1,-6.6%
CC(=O)Nc1ccc(OC(=O)c2c(-c3ccccc3Cl)noc2C)cc1,?
CC(C)(C)C1CCc2c(sc(NC(=O)c3cccs3)c2C(N)=O)C1 (stereo not given),?
CCOC(=O)/C(C#N)=C/c1ccc(N2CCN(C)CC2)cc1,-15.8%
Cc1cc2ncn(CCOc3ccccc3)c2cc1C,0.0%
CCOC(=O)c1c(NC(=O)c2cccs2)sc(CC)c1-c1cccs1,?
O=C(CCSc1ccccc1)Nc1nc2c(s1)CCCC2,-6.1%
CCc1nnc(NC(=O)CSc2nc(-c3ccc(OC)cc3)ns2)s1,-11.1%
CS(=O)(=O)n1nc(OC(=O)c2cccc3ccccc23)cc1N,-10.9%
C/C(=N/NC(=O)c1cc2ccccc2cc1O)C1C(=O)c2ccccc2C1=O,-25.5%
O=C(c1ccc(COc2ccccc2Cl)o1)N1CCN(c2ccccc2)CC1,-17.0%
COc1ccc2c(c1O)Cc1ccccc1C2=O,-16.1%
Cn1c(SC2=CS(=O)(=O)c3ccccc32)nc2ccccc21,-8.0%
CC(C)(C)N1C(=O)c2ccccc2NC(=O)N1Cc1ccccc1,-2.3%
O=C(CCN1CCOCC1)Nc1c(-c2ccccc2)c2cc(Br)ccc2[nH]c1=O,-16.4%
Cc1ccc(NC(=O)CN2C(=O)C3C4C=CC(C4)C3C2=O)cc1S(=O)(=O)N(C)C (stereo not given),-8.9%
CCN(CC)S(=O)(=O)c1ccc(N2CCN(c3cccc(OC)c3)CC2)c([N+](=O)[O-])c1,-3.3%

# Part of the list above, tab-delimited.
canonical_smiles	HPGD block
CCOC(=O)c1c(NC(=O)c2cccs2)sc(CC)c1-c1cccs1	?
CN(CCCn1c(=S)[nH]c2ncccc2c1=O)Cc1ccccc1	-19.0%
COc1cc(NC(=O)c2ccccc2NS(=O)(=O)c2ccc(Cl)s2)cc(OC)c1	-5.9%
COCCNc1nnc(SCC(=O)c2c[nH]c3ccccc23)s1	-6.6%
CC(=O)Nc1ccc(OC(=O)c2c(-c3ccccc3Cl)noc2C)cc1	?
Cc1cc2ncn(CCOc3ccccc3)c2cc1C	0.0%
CCN(CC)S(=O)(=O)c1ccc(N2CCN(c3cccc(OC)c3)CC2)c([N+](=O)[O-])c1	-3.3%
